Screening results from PubChem BioAssay.
rRNA inh HTS – inhibitors of bacterial rRNA selective over humanized ribosomes | actives 1.6% (n = 350,000) | GFP signal change (wild-type ribosome), % (concentration not given with the values) | E. coli WT GFP vs humanized-ribosome RFP mutants, fluorescence, 24 h; stronger effect = lower value; DMSO median 0, no signal -100;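 active means significant combined selectivity score with lowered wild-type GFP, culture density cut under 30%, mutant RFP and density less affected; inactive means any of these conditions unmet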; further: one replicate is shown; some compounds called inactive have numbers as strong as hits
AF4-AF9 inh – blocks AF4 peptide binding to human AF9; AlphaScreen, biotin-AF4 peptide binding to FLAG-AF9; inhibition, % at 10 µM; actives 0.47% (n = 350,000); AID 651704;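 active means every replicate reaching a set inhibition limit, whatever the replicate mean, cut at about 25% in these data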;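 further: 0% = plate neutral control median and 100% = total signal loss; the record names both 10 and 1 µM as test concentration; the first replicate is given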
Target sequence (P42568 whole entry, looked up): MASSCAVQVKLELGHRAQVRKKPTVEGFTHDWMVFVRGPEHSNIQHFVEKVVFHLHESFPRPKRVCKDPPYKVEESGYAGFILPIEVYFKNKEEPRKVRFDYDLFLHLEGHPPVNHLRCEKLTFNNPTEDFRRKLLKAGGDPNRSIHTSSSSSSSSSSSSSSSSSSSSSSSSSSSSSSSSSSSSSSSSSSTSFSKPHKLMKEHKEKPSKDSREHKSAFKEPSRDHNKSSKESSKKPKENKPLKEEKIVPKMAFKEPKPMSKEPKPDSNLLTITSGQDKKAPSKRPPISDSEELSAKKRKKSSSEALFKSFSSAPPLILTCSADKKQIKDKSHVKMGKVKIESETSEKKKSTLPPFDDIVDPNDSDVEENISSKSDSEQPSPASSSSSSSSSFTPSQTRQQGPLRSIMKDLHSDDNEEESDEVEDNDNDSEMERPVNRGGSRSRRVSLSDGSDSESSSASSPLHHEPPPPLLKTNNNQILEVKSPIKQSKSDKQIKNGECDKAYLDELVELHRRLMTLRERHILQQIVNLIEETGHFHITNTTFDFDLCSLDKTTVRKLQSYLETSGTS
FGF22 binding – binders of recombinant human FGF22 by thermal shift | AID 651658 | SYPRO orange fluorescence; percent of sucrose octasulfate shift, DMSO zero | Q9HCT0 | calls only at 9.99 µM | actives 1.5% (n = 340,000);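 active means melting point raised past a set limit in the mean and every replicate; three in four hits are not shown here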
Target sequence (Q9HCT0 whole entry, looked up): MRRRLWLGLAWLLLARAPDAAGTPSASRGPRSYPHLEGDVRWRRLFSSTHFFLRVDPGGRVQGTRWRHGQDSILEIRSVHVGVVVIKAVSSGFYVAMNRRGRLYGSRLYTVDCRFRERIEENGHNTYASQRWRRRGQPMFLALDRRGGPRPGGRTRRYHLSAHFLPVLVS
rRNA inh HTS OD600 – second read-out of rRNA inh HTS, no call of its own (marks repeat the call); OD600 change, %; measured here: OD600 growth;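 optical density of the mix in the first replicate; 0 = DMSO median and -100 = no signal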
rRNA inh HTS RFP – also measured in rRNA inh HTS; calls as there; RFP signal change, %; measured here: RFP humanized mutant strains;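 first replicate; 0 = DMSO median and -100 = no signal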
Starred values were filed as active, the others as inactive; i = inactive; + = active, no number; & = joins results of further samples.

SMILES | rRNA inh HTS | rRNA inh HTS OD600 | rRNA inh HTS RFP | AF4-AF9 inh | FGF22 binding
COc1ccccc1CNC(=O)C[C@@H]1C[C@@H]2c3cc(NC(=O)CN(C)C)ccc3O[C@@H]2[C@@H](CO)O1 | 3 | 0 | -2.2 | -0.6 | i
COc1cccc(NC(=O)N[C@@H]2C=C[C@@H](CC(=O)N3CCOCC3)O[C@H]2CO)c1 | 1 | 10 | 0.5 | -1.2 | i
CCCC#Cc1ccc2c(c1)O[C@@H](CN(C)C(=O)C1CCC1)[C@@H](C)CN([C@@H](C)CO)S2(=O)=O | -3 | -19 | 3.6 | 5.9 | i
CCN(CC)C(=O)[C@H]1C[C@H](CC(=O)NC(C)(C)C)C(=O)N2CCc3c([nH]c4cc(CCC(=O)N(C)C)ccc34)[C@]12C | 3 | 3 | -2.1 | 0.9 | i
COc1ccccc1CC1(C)C(=O)Nc2ccc(OC(F)(F)F)cc21 (stereo not given) | -65 | -80 | -21 | 0.4 | i
O=C(O)C1OC1(c1ccccc1Cl)c1ccccc1Cl (stereo not given) | 1 | -3 | -0.9 | -6.3 | i
C[C@@H]1CN([C@@H](C)CO)C(=O)Cc2cc(NS(=O)(=O)c3ccc(Cl)cc3)ccc2O[C@@H]1CN(C)C | 2 | -7 | -1.5 | -2.0 | i
CC(C)NC(=O)N(C)C[C@@H]1Oc2ccc(NC(=O)CCCN(C)C)cc2C(=O)N([C@@H](C)CO)C[C@H]1C | 2 | 4 | -0.2 | -1.6 | i
Cc1noc(C)c1NC(=O)N(C)C[C@H]1Oc2ccc(NC(=O)Nc3ccccc3)cc2C(=O)N([C@H](C)CO)C[C@H]1C | 8 | 14 | 1.2 | -1.8 | i
CN(C)c1ncnc2c1ncn2[C@H]1CN(C2CCCC2)C[C@@H](CO)O1 | 6 | 7 | 0.9 | 0.3 | i
O=C(c1ccc2c(c1)C(=O)NC2=O)c1ccc2c(c1)C(=O)NC2=O | 4 | 5 | 1.3 | 11 | i
CN(C(=O)Nc1cccc([N+](=O)[O-])c1)c1ccccc1 | 8 | 12 | -1.0 | -1.4 | i
C[C@@H]1CN([C@@H](C)CO)C(=O)c2cc(C#CC3CCCC3)cnc2O[C@@H]1CN(C)C(=O)C1CCC1 | 6 | 7 | -0.8 | -4.0 | i
COc1ccc(CN(C)C[C@H]2OCCCC[C@H](C)Oc3ccc(NC(=O)Nc4ccc5c(c4)OCO5)cc3C(=O)N([C@@H](C)CO)C[C@H]2C)cc1 | 0 | 0 | 8.3 | 4.2 | i
CSc1ccc(CNC(=O)C2(C)CCCN2C)cc1 (stereo not given) | 0 | 8 | -2.7 | 1.2 | i
C[C@H](CO)N1C[C@H](C)[C@@H](CN(C)C(=O)Nc2ccc3c(c2)OCO3)OCCCC[C@H](C)Oc2ccc(N(C)C)cc2C1=O | -2 | -6 | 1.1 | -5.3 | i
C[C@@H]1CN([C@H](C)CO)C(=O)c2cc(NS(=O)(=O)c3ccccc3)ccc2O[C@@H]1CN(C)Cc1ccc(Oc2ccccc2)cc1 | -2 | -24 | 17 | 2.7 | i
CCCNC(=O)c1nnsc1S(=O)(=O)c1ccc(Cl)cc1 | -13 | 2 | 2.8 | -5.7 | i
COCC(=O)Nc1ccc2c(c1)[C@@H]1C[C@@H](CC(=O)N[C@H](C)c3ccccc3)O[C@H](CO)[C@@H]1O2 | 2 | 12 | 0.5 | 1.0 | i
CC(C)CC#Cc1ccc2c(c1)O[C@H](CN(C)C(=O)C1CCOCC1)[C@H](C)CN([C@@H](C)CO)S2(=O)=O | -4 | 3 | -0.8 | -2.6 | i
Cc1cc(C(=O)Nc2cccc3c2O[C@H](CN(C)Cc2ccc(Oc4ccccc4)cc2)[C@@H](C)CN([C@H](C)CO)C3=O)n(C)n1 | -2 | -3 | 2.5 | 7.1 | i
CNC[C@H]1Oc2ccc(NC(=O)Cn3cnnn3)cc2C(=O)N([C@@H](C)CO)C[C@@H]1C | 1 | 2 | 0.4 | -2.3 | i
CCNC(=O)[C@@H]1[C@@H](CO)[C@@H]2Cn3c(cccc3=O)[C@@H]2N1C(=O)C1CCCC1 | 2 | 4 | 1.1 | 0.6 | i
COc1ccc(OCCN2CCC(C(=O)NC(C)c3cccc4ccccc34)CC2)cc1 (stereo not given) | 1 | 3 | 6.5 | 1.4 | i
C[C@@H]1CN([C@H](C)CO)C(=O)c2cccc(NC(=O)Nc3ccc4c(c3)OCO4)c2O[C@@H]1CN(C)Cc1ccc(Cl)c(Cl)c1 | -8 | -26 | -0.4 | 9.0 | i
C[C@@H]1CCCCO[C@H](CN(C)C(=O)CCC(F)(F)F)[C@@H](C)CN([C@@H](C)CO)C(=O)c2cc(NC(=O)C3CCCCC3)ccc2O1 | -1 | 1 | 2.9 | -2.7 | i
CC(C)NC(=O)N1CCCCN2[C@H](CO)[C@@H](c3ccc(C#C[C@@H](C)O)cc3)[C@H]2C1 | 7 | 23 | 1.7 | -3.6 | i
Cc1noc(C)c1NC(=O)Nc1ccc2c(c1)C(=O)N([C@H](C)CO)C[C@H](C)[C@@H](CN(C)Cc1ccccc1)O2 | 3 | 5 | -0.6 | 0.9 | i
C[C@@H]1CCCCO[C@H](CN(C)Cc2ccc(C(F)(F)F)cc2)[C@H](C)CN([C@@H](C)CO)C(=O)c2cc(NS(=O)(=O)c3cn(C)cn3)ccc2O1 | -1 | -9 | 4.1 | 3.5 | i
O=C(Nc1ccc2c(c1)OCO2)c1ccc2nc([C@@H]3O[C@H](CO)[C@H](O)[C@H](O)[C@H]3O)[nH]c2c1 | 1 | 6 | -2.7 | 0.6 | i
C[C@@H]1CN([C@H](C)CO)C(=O)c2cccc(NS(=O)(=O)c3cn(C)cn3)c2O[C@@H]1CN(C)Cc1ccc(Cl)c(Cl)c1 | -1 | -9 | -0.6 | 1.8 | i
O=C(N[C@@H]1CC[C@@H](CCn2cc(Cc3ccccc3)nn2)O[C@@H]1CO)c1ccccn1 | -3 | 0 | -1.7 | -0.8 | i
CC(C)NC(=O)N(C)C[C@H]1Oc2c(NS(=O)(=O)c3ccc(Cl)cc3)cccc2C(=O)N([C@H](C)CO)C[C@@H]1C | -3 | 4 | 0.8 | -0.9 | i
O=C(NCC[C@H]1CC[C@@H](NS(=O)(=O)c2ccc(F)cc2)[C@H](CO)O1)c1ccc2c(c1)OCO2 | -8 | -6 | 0.7 | -1.2 | i
C/C=C/c1ccc2c(c1)O[C@@H](CN(C)S(=O)(=O)c1ccccc1OC)[C@H](C)CN([C@@H](C)CO)S2(=O)=O | -2 | -3 | 1.3 | 4.1 | i
C[C@@H]1CN([C@H](C)CO)C(=O)c2cc(NS(=O)(=O)c3ccccc3)ccc2O[C@@H](C)CCCCO[C@H]1CN(C)S(=O)(=O)c1cccs1 | 0 | 1 | 0.4 | -0.8 | i

Looked up by structure from above (2):
SMILES | rRNA inh HTS | rRNA inh HTS OD600 | rRNA inh HTS RFP | AF4-AF9 inh | FGF22 binding
CC(C)NC(=O)N1CCCCN2[C@H](CO)[C@@H](c3ccc(C#C[C@@H](C)O)cc3)[C@H]2C1 | 7 | 23 | 1.7 | -3.6 | i
C[C@@H]1CN([C@H](C)CO)C(=O)c2cccc(NC(=O)Nc3ccc4c(c3)OCO4)c2O[C@@H]1CN(C)Cc1ccc(Cl)c(Cl)c1 | -8 | -26 | -0.4 | 9.0 | i

Going on with the list:
SMILES | rRNA inh HTS | rRNA inh HTS OD600 | rRNA inh HTS RFP | AF4-AF9 inh | FGF22 binding
COc1ccc(Br)cc1/C=N/NS(=O)(=O)c1ccccc1 | -28 | -20 | -6.6 | 0.2 | i
COc1ccc(C#Cc2ccc([C@H]3[C@H](CO)N4CCCCN(Cc5ccccc5F)C[C@@H]34)cc2)cc1 | -51 | -68 | -6.6 | 32* | i
COc1ccc(CN(C)C[C@H]2Oc3c(NS(=O)(=O)c4ccc(F)cc4)cccc3C(=O)N([C@@H](C)CO)C[C@@H]2C)cc1 | 0 | -1 | -3.1 | -0.9 | i
O=C(O)C1CC(C(=O)O)SS1 (stereo not given) | 8 | 8 | -3.0 | -6.3 | i
Cc1cc(NC(=O)CN2C(=O)NC3(CCCCC3)C2=O)ccc1N1CCCC1 | 3 | 3 | 2.7 | 0.9 | i
CCC(CO)Nc1ccn2nc(-c3cccs3)cc2n1 (stereo not given) | -1 | -3 | -1.6 | -1.0 | i
COc1ccc(CN(C)C[C@H]2Oc3ccc(NC(=O)Nc4ccccc4)cc3CC(=O)N([C@H](C)CO)C[C@H]2C)cc1 | 0 | -2 | 6.7 | 4.8 | i
C[C@@H]1CN([C@@H](C)CO)C(=O)c2cccc(NS(=O)(=O)c3ccccc3)c2O[C@@H]1CN(C)Cc1ccc(Cl)c(Cl)c1 | 0 | -2 | -4.2 | 1.6 | i
O=C(NCc1ccccc1)C(c1ccccc1F)n1c(=O)c(-c2cc3ccccc3[nH]2)nc2ccccc21 (stereo not given) | 9 | 5 | 2.8 | -44 | i
O=C(c1ccc(F)cc1)N1CC(=O)N2[C@@H](CO)[C@H](c3ccc(C#CCC4CCCC4)cc3)[C@@H]2C1 | -7 | -21 | 3.7 | 2.4 | i
CC=Cc1ccc2n(c1=O)C[C@H]1[C@H](CO)[C@@H](C(=O)NCCOC)[C@@H]2N1Cc1nccs1 (mixture of isomers) | 3 | -4 | -2.7 | -17 | i
CC1CCCCC1NC(=O)COC(=O)Cc1ccc(Cl)cc1 (stereo not given) | 3 | 6 | -0.7 | -0.4 | i

Some entries already given, reduced to rRNA inh HTS and rRNA inh HTS OD600.
Molecule	rRNA inh HTS	rRNA inh HTS OD600
CC1CCCCC1NC(=O)COC(=O)Cc1ccc(Cl)cc1 (stereo not given)	3	6
COc1ccc(C#Cc2ccc([C@H]3[C@H](CO)N4CCCCN(Cc5ccccc5F)C[C@@H]34)cc2)cc1	-51	-68

Compound profiles (already shown). Values in the order: rRNA inh HTS | rRNA inh HTS OD600 | rRNA inh HTS RFP | AF4-AF9 inh | FGF22 binding
O=C(c1ccc(F)cc1)N1CC(=O)N2[C@@H](CO)[C@H](c3ccc(C#CCC4CCCC4)cc3)[C@@H]2C1 is listed with -7 | -21 | 3.7 | 2.4 | i
O=C(O)C1CC(C(=O)O)SS1 (stereo not given) is listed with 8 | 8 | -3.0 | -6.3 | i

Carrying on.
SMILES | rRNA inh HTS | rRNA inh HTS OD600 | rRNA inh HTS RFP | AF4-AF9 inh | FGF22 binding
C[C@@H]1CN([C@@H](C)CO)C(=O)c2cc(NC(=O)CCN3CCOCC3)ccc2O[C@H]1CN(C)Cc1ccc(Cl)c(Cl)c1 | -6 | -14 | 0.1 | 3.8 | i
C/C=C/c1ccc([C@H]2[C@@H](CO)N(C(=O)CN(C)C)C23CN(C(=O)C2CCC2)C3)cc1 | 3 | 7 | 0.8 | 5.2 | i
COc1ccc2c3c([nH]c2c1)[C@@H](CO)N(C(=O)Nc1cccc(F)c1)CC31CCN(S(=O)(=O)c2ccccc2)CC1 | -3 | -1 | -1.1 | -1.4 | i
CO[C@H]1CN(C)C(=O)c2ccc(NC(=O)C3CCCCC3)cc2OC[C@@H](C)N(Cc2nccs2)C[C@H]1C | -10 | -9 | 3.5 | 1.2 | i
O=C(C[C@H]1CC[C@@H]2[C@H](COC[C@@H](O)CN2C(=O)c2cccnc2)O1)NCc1ccc(-c2ccccc2)cc1 | -2 | -10 | 5.5 | -2.8 | i
C[C@H]1CN([C@@H](C)CO)C(=O)c2cc(C#CCC3CCCC3)cnc2O[C@@H]1CN(C)C(=O)CC1CC1 | -4&-4 | -5&-11 | 1.0&4.8 | -1.4&2.0&-1.3 | i
C[C@H]1CN([C@@H](C)CO)C(=O)c2cc(-c3cncnc3)cnc2O[C@H]1CN(C)C(=O)Cc1ccccn1 | 1 | -6 | -1.7 | -2.1 | i
CC(=O)c1cccc(-c2ccnc3c2CC(C(=O)Nc2ccc(Cl)cc2)O3)c1 (stereo not given) | 3 | -41 | 10.0 | -3.3 | i
C[C@@H]1CCCCO[C@@H](CN(C)C(=O)Nc2ccc(C(F)(F)F)cc2)[C@@H](C)CN([C@H](C)CO)C(=O)c2cc(NS(C)(=O)=O)ccc2O1 | -1 | 1 | -0.7 | -2.8 | i
C[C@@H]1CN([C@@H](C)CO)C(=O)c2cc(NS(=O)(=O)c3cn(C)cn3)ccc2O[C@@H]1CN(C)CC1CC1 | 7 | 18 | 0.8 | -1.3 | +
CO[C@@H](CN(C)C(=O)C1CCOCC1)[C@H](C)CN(C(=O)Nc1ccc(F)cc1)[C@@H](C)CO | 0 | -4 | -2.0 | 1.2 | i
CCC(=O)N1CC2(C1)[C@@H](c1ccc(-c3ccc(C#N)cc3)cc1)[C@@H](CO)N2C(C)=O | -3 | -3 | -1.1 | -1.2 | i
COc1ccc(S(=O)(=O)N(C)C[C@@H]2OCCCC[C@@H](C)Oc3ccc(NC(=O)NC(C)C)cc3C(=O)N([C@H](C)CO)C[C@H]2C)cc1 | 1 | -3 | 2.5 | 1.1 | i
COc1ccc(CN2C[C@H](O)COC[C@H]3O[C@H](CC(=O)NCc4ccccc4Cl)CC[C@@H]32)cc1 | -7 | -4 | 4.9 | 1.8 | i
C[C@@H]1CN([C@H](C)CO)C(=O)c2cc(NC(=O)C3CCCCC3)ccc2O[C@H]1CN(C)C | 3 | 7 | -4.0 | -0.8 | i

A portion of the library; the hit share may differ from the screen's.
